MLL AF4-AF9 inh: inhibitors of human MLL-AF4/AF9 interaction; hit rate 0.47% among 350,000; AlphaScreen, biotin-AF4 peptide binding to FLAG-AF9; P42568; inhibition, % at 10 µM;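 active = every replicate reaching a set inhibition limit, whatever the replicate mean, cut at about 25% in these data; inconclusive = mean inhibition reaches that limit but some replicates miss it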;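 note: 0% = plate neutral control median and 100% = total signal loss; the record names both 10 and 1 µM as test concentration; the first replicate is given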
Target sequence (P42568 whole entry, looked up): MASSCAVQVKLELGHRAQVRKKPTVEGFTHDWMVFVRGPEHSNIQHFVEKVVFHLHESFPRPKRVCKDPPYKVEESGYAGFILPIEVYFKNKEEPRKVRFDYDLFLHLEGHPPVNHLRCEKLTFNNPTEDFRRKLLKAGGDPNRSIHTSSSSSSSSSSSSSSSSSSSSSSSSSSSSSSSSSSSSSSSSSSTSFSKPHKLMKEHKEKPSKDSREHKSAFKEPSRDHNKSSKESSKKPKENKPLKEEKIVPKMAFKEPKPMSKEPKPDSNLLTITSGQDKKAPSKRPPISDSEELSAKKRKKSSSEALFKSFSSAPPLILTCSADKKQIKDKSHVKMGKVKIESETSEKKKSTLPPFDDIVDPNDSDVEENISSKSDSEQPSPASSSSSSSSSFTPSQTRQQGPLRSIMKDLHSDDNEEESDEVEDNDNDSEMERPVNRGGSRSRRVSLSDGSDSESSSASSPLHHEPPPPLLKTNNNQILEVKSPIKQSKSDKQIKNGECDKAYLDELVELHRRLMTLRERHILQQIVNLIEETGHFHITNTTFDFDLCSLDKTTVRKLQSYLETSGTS
Ecoli growth: E. coli growth inhibition. AID 1053175. hit rate 0.21% among 330,000. OD600 absorbance (concentration not given with the values). Escherichia coli growth, OD600, 23 h; stronger effect = lower value;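 active = OD600 absorbance below the run mean of sample wells minus 3.6 SD, in any replicate, cut at about 0.56 in these data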;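 note: stock transfer was 300 nL into about 60 µL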
HNF4A DNA FP: change in binding of human HNF4 alpha to DNA; HNF4a-FITC DNA binding, fluorescence polarization, 1 h; activity change, % at 10 µM; hit rate 0.3% among 360,000; AID 1224865; in the data active = activity change above about 30%, passing the limit was not always enough;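 note: controls were the assay level and a saturating level of protein; the project sought stronger binding though the title names inhibitors; some compounds called inactive have numbers as strong as hits; positive values seem to mean higher polarization but the record does not say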
Target sequence (P41235 whole entry, looked up): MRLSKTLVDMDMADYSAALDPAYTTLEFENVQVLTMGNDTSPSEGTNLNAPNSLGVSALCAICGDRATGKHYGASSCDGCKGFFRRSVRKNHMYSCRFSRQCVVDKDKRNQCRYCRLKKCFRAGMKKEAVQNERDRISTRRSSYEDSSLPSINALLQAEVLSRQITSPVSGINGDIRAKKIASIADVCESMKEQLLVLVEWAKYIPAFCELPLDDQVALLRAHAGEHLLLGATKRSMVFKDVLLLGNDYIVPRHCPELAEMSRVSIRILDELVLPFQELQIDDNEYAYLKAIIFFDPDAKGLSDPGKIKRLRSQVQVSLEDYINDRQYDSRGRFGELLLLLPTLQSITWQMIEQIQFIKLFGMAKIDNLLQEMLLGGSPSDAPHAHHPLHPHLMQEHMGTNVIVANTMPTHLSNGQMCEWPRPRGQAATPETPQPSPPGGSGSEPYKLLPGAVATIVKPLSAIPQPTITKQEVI
UCH37 inh: blocks the human deubiquitinase UCH37; Q9Y5K5; purified proteasome/UCH37, Ub-AMC cleavage fluorescence; inhibition, % (test concentration not listed); hit rate 0.33% among 330,000; AID 588478;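 active = mean of two replicates above 20%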;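 note: 0% = compound-free wells with enzyme and 100% = wells lacking proteasome; stock transfer was 100 nL into about 20 µL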
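Material: human UCH37 enzyme supplied as purified proteasome complex / Amount: 0.15 nM proteasome as dispensed / Buffer or medium: pH 7.4 Tris-HCl (50 mM) with ovalbumin, ATP-MgCl2, DTT / Times: preincubation 30 min, reaction 25 min, room temperature / Technique: AMC fluorescence from Ub-AMC cleavage, excitation 355 nm, emission 460 nm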
Vif TR-FRET: inhibitors of Vif binding to APOBEC3G peptide, primary screen, biochemical, TR-FRET, GST-Vif 1-94, biotin-A3G peptide, dose response retest (AID 1117319) | TR-FRET GST-Vif / biotin-A3G peptide binding; higher % means a stronger effect; test concentration not given here; strong numbers were not always called active | one-dose inhibition, %; IC50 in µM for titrated hits | hit rate 0.57% among 260,000;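 active = above the screen mean plus three standard deviations and confirmed in dose response; inconclusive = results disagree or hit not tested in dose response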;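 note: Vif residues 1-94 fused to GST binding biotinylated APOBEC3G peptide 110-148; 0% = full assay without inhibitor and 100% = GST in place of GST-Vif; retest series ran down from 100 µM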
RanGTP-Imp inh: disruptors of Ran-importin-beta complex formation – biochemical, FRET, CFP-Ran, YFP-importin-beta, homogeneous, primary screen; inhibition, % (concentration not given with the values); cell-free CFP-Ran/YFP-importin-beta FRET ratio; hit rate 1.1% among 300,000;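 active = most replicates above 15%; inconclusive = exactly half above 15%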;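 note: 0% = DMSO wells and 100% = Ran loaded with GDP instead of GTP; wells of about 40 µL received 100 nL stock; the first replicate is given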
FGF22 binding: FGF22 (human) thermal shift binding. Q9HCT0. recombinant FGF22 thermal shift, SYPRO orange fluorescence; percent of sucrose octasulfate shift, DMSO zero. calls only at 9.99 µM. hit rate 1.5% among 340,000;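 active = melting point raised past a set limit in the mean and every replicate; inconclusive = no clear call; three in four hits are not shown here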
* = called active by the depositor; i = inactive; u = inconclusive; x = no result given; & = joins results of further samples.

SMILES | MLL AF4-AF9 inh | Ecoli growth | HNF4A DNA FP | UCH37 inh | Vif TR-FRET | RanGTP-Imp inh | FGF22 binding
COc1cc(C2C(C(=O)c3cc4ccccc4o3)=C(O)C(=O)N2c2cc(C)on2)cc(OC)c1OC (stereo unspecified) | -4.0 | x | 1.7 | x | x | 8.2 | i
O=C(CCNC(=O)c1ccccc1Cl)Nc1cc(C(F)(F)F)ccc1Cl | 4.9 | 0.64 | -0.8 | 1.3 | 21% | 4.0 | i
O=C(c1cc2nc(-c3ccccc3)cc(C(F)(F)F)n2n1)N1CCN2CCCC2C1 (stereo unspecified) | 0.8 | 0.65 | 1.9 | -17 | 1% | 1.8 | i
Cc1cc2c(c(SCC(=O)NCc3ccc(Cl)cc3)n1)C(=O)OC2 | 4.8 | 0.74 | -3.0 | 0.8 | 0% | -1.1 | i
Cc1cc(CNC(=O)CC2C(=O)NCCN2Cc2ccccc2C(F)(F)F)on1 (stereo unspecified) | -1.0 | 0.71 | -6.8 | 1.2 | x | -1.2 | i
CC(C)(C)n1nc2c(c1NC(=O)Cc1ccc(F)cc1)CSC2 | 2.8 | 0.74 | -2.0 | 4.8 | -5% | 2.5 | i
O=C(Nc1ccc(S(=O)(=O)N2CCOCC2)cc1)c1ccc([N+](=O)[O-])o1 | 0.0 | 0.66 | -3.1 | 8.5 | 23% | 3.3 | i
O=C(Cn1c(=O)oc2cc(S(=O)(=O)N3CCCC3)ccc21)Nc1cccc(C(F)(F)F)c1 | x | 0.75 | 1.7 | -1.9 | 9%&-5% | u | x
Cc1c(C)c2c(OCC(=O)Nc3ccc(CCO)cc3)cc3c(c2oc1=O)CCC(C)(C)O3 | 2.5 | 0.82 | 0.5 | -235 | x | 0.1 | i
O=C(O)CCC(=O)NN1C(=O)c2ccccc2NC1c1ccc(F)cc1 (stereo unspecified) | 3.0 | 0.66 | -1.3 | -372 | -2% | -1.3 | i
Cc1ccc(S(=O)(=O)NC(=O)NCc2ccc(Cl)cc2)cc1 | x | 0.68 | -1.4 | 2.1 | 4% | 2.1 | x
OC(c1ccc(F)cc1)c1nc(-c2cccs2)cs1 (stereo unspecified) | -3.2 | x | 3.1 | x | x | x | i
CCc1ccc(N2C(=O)Nc3ccccc3C2(O)C(=O)N2CCN(c3ccccn3)CC2)cc1 (stereo unspecified) | -1.4 | 0.73 | 4.9 | -0.3 | 5% | -2.3 | x
CCN(CC)S(=O)(=O)c1ccc(NC(=O)COC(=O)CNC(=O)C2CCCCC2)cc1 | -0.4 | 0.66 | -1.7 | 1.1 | -1% | x | i
O=C(c1cc2cc([N+](=O)[O-])ccc2oc1=O)N1CCN(C2CCCCC2)CC1 | 0.5 | 0.71 | 2.1 | 2.7 | 6% | -2.5 | i
CC(=O)N/N=C/c1cc2c(cc1[N+](=O)[O-])OCO2 | 0.8 | x | -3.4 | x | 1% | -1.1 | i
COc1ccccc1C(=O)N/C(=C\c1cn(S(=O)(=O)N(C)C)c2ccccc12)C(=O)NCCCN1CCOCC1 | 3.3 | 0.71 | -0.5 | 5.2 | -4% | 0.6 | i
Cc1ccn(CCC(=O)N2c3ccccc3CC2C)n1 (stereo unspecified) | -0.1 | 0.71 | -0.8 | 0.1 | x | -1.4 | i
CC(C)(C)C1CCC(=O)N2CCC[C@]2(c2ccccc2)C1 (stereo partly specified) | 1.4 | x | 0.6 | x | x | x | i
C=CCSc1n[nH]c(-c2ccc(OCCC)cc2)n1 | 5.4 | 0.67 | 3.2 | 2.0 | 1% | 1.0 | i
O=C(O)C1CCCCN1C(=O)c1cc2c(s1)CCCCC2 (stereo unspecified) | 0.0 | 0.62 | -1.3 | 2.2 | x | x | i
CC1=NOC(=O)/C1=C\c1ccc(-c2ccc(Br)cc2C(=O)O)o1 | -2.9 | 0.65 | -11 | -1.2 | x | 1.8 | i
O=S(=O)(NCC1CCN(c2ccc(S(=O)(=O)N3CCOCC3)cc2)CC1)c1ccc(F)cc1 | 0.0 | 0.69 | -0.7 | 6.9 | x | 0.3 | i
CCC1=NN(C(=O)c2ccc([N+](=O)[O-])cc2)C(O)(c2ccccc2)C1 (stereo unspecified) | 11 | 0.7 | -2.7 | 3.6 | x | -0.5 | i
O=C(c1ccc2[nH]ccc2c1)N1CCCC(Nc2ccccc2)C1 (stereo unspecified) | -3.3 | 0.67 | 1.8 | -2.3 | 3% | 2.6 | i
COc1cccc(N2C(=O)CC(N3CCN(C(=O)c4ccco4)CC3)C2=O)c1 (stereo unspecified) | x | 0.73 | 1.1 | 2.5 | 25% | 3.7 | x
CNc1nc2cc([N+](=O)[O-])c([N+](=O)[O-])cc2nc1NC | 0.1 | x | -0.6 | 41* | 18% | -1.5 | i
S=c1[nH]cnc2scc(-c3ccc(Cl)cc3)c12 | -3.3 | 0.65 | 2.0 | 3.8 | x | 4.8 | i
COC(=O)C1Sc2[nH]c(=O)sc2C(c2ccc(Cl)cc2)C1C(=O)OC (stereo unspecified) | 0.6 | 0.73 | 0.2 | 8.0 | -1% | -2.5 | i
COC(=O)c1ccc([N+](=O)[O-])cc1N1C(=O)C2C3CCC(C3)C2C1=O (stereo unspecified) | 0.8 | 0.72 | 1.4 | 0.4 | 1% | -2.8 | i
COc1ccccc1C(NC(=O)C1CCN(CCOc2ccc(Cl)cc2Cl)CC1)c1ccccn1 (stereo unspecified) | 11 | x | -2.6 | x | x | x | i
CCOc1ncccc1C(=O)N(C)CC(=O)Nc1ccccc1SC | x | 0.66 | -2.0 | 3.7 | x | 3.9 | x
COc1ccc(C(=O)NCC2(c3ccccc3)CCCC2)c(OC)c1 | -0.3 | 0.67 | 4.3 | 5.3 | -1% | -2.5 | i
COc1cccc(NC(=O)C2CCCN(c3ncnc4c3nc3n4CCCCC3)C2)c1 (stereo unspecified) | 4.4 | 0.69 | -2.1 | 1.2 | x | 2.2 | i
COc1ccc2nc(C)c3c(c2c1)OC(C(C)(Cl)Br)C3 (stereo unspecified) | 0.1 | 0.68 | -4.4 | -5.0 | x | 2.6 | i
COc1cccc(C2CC(c3cccs3)Nc3ncnn32)c1 (stereo unspecified) | x | 0.73 | 1.2 | 4.6 | -1% | 3.3 | x
CC1CCN(S(=O)(=O)c2cccc(C(=O)Nc3ccccc3)c2)CC1 | -0.4 | 0.65 | 6.2 | -0.5 | x | 0.9 | i
CCn1nc(C(=O)NNC(=O)C(Cc2ccccc2)NC(N)=O)c2ccccc2c1=O (stereo unspecified) | 1.1 | 0.67 | 3.6 | 0.8 | -5% | x | i
CCN1CCN(c2cc(=O)n(-c3cc(Cl)ccc3C)c(=O)[nH]2)CC1 | x | 0.71 | -1.9 | -1.5 | -6% | 72* | x
COc1ccc(C(=O)N[C@H](C(=O)NCCCn2nc(C)cc2C)C(C)C)cc1 | 2.0 | 0.73 | 0.1 | 5.3 | x | x | i
O=C(Cn1ccc2ccccc2c1=O)NCCC(=O)Nc1ccc(F)cc1F | -1.8 | 0.67 | 0.5 | 3.2 | 0% | -4.0 | i
O=S(=O)(NNc1nccc(C(F)(F)F)n1)c1cccc(Cl)c1Cl | x | 0.63 | 1.3 | 4.1 | -2% | -2.2 | i
CCc1n[nH]c(=S)n1/N=C/c1ccc(-c2ccc(Br)cc2)o1 | 0.0 | x | -0.6 | x | x | 6.4 | i
Nc1ncnc2c1ncn2[C@@H]1O[C@H](CN=C2NS(=O)(=O)c3ccccc32)[C@@H](O)[C@H]1O | -1.9 | 0.69 | -5.8 | 4.0 | 6% | x | i
Cc1cc(N(C)C)cc(C)c1N=Nc1cc[n+]([O-])cc1 | 8.9 | x | 8.2 | x | -1% | x | i
CCN(CC)S(=O)(=O)c1cccc(C(=O)NC2CCCCC2)c1 | 3.7 | 0.67 | -0.5 | 0.2 | 7% | 0.2 | i
NCc1nc(-c2ccc(Cl)cc2)no1 | 0.4 | 0.64 | 2.5 | -1.2 | 31% | -0.1 | i
CCc1ccc(C(=O)NN=C2CCCCCC2)s1 | -3.7 | 0.66 | -1.4 | 2.1 | x | -1.8 | i
C/C(N)=C(/C#N)C(=O)COC(=O)C(c1ccccc1)c1ccccc1 | -1.9 | 0.75 | -2.8 | 0.8 | x | -7.0 | i
O=C(O)c1ccc(Nc2ncnc3scc(-c4ccccc4)c23)cc1 | -0.6 | 0.72 | -1.3 | -2.4 | 11% | 1.3 | i
O=C(N/N=C\c1ccc(COc2ccc([N+](=O)[O-])cc2)o1)c1cccc(Cl)c1 | x | x | 6.5 | x | 27% | 2.7 | x
Cc1ccc(-c2nc3cccnc3s2)cc1NS(=O)(=O)c1ccc2c(c1)CCCC2 | -3.9 | 0.83 | 6.4 | -30 | -24% | 4.7 | i
O=C(CCNC(=O)c1ccccc1Cl)Nc1ccc(S(=O)(=O)N2CCOCC2)cc1 | -1.3 | x | 0.6 | x | x | x | i
Cc1cccc(OCc2nc(-c3ccccn3)n[nH]2)c1 | x | 0.77 | -1.9 | 4.5 | 27% | 2.7 | x
FCCCOc1ccc(-c2ccnc(-c3ccccc3)n2)cc1 | x | 0.76 | 6.6 | 2.4 | 1% | -4.6 | x
CCCCN1C(=O)C(=O)N(CC(=O)Nc2ccccc2C(C)=O)C1=O | 0.9 | 0.69 | 4.0 | 2.7 | x | x | i
CCOC(=O)c1ccc(NC(=O)CSc2nnnn2C2CCCCC2)cc1 | x | 0.7 | 1.5 | 0.9 | 8% | -1.0 | x
Cc1cccc(C)c1NC(=O)c1csc([C@@H]2O[C@H](CO)[C@H](O)[C@H](O)[C@H]2O)n1 | 1.6 | x | -1.9 | x | x | x | i
O=C(Oc1cccc(N2C(=O)CCC2=O)c1)c1ccccc1 | x | 0.7 | 1.5 | 2.6 | u | -1.6 | x
O=C(COc1ccc(S(=O)(=O)Nc2ccccc2)cc1)NCc1cccnc1 | x | 0.71 | 0.0 | 2.8 | x | 8.6 | x
Later entries
SMILES | MLL AF4-AF9 inh | Ecoli growth | HNF4A DNA FP | UCH37 inh | Vif TR-FRET | RanGTP-Imp inh | FGF22 binding
O=C(CNCC1CCCO1)NCc1ccco1 (stereo unspecified) | 0.4 | 0.69 | 2.9 | 0.9 | x | -1.9 | x
COC(=O)[C@]12CCCCC=C1N(Cc1ccccc1)C(=O)[C@H](CC(=O)N1CCOCC1)C2 | -4.1 | x | 3.2 | x | x | x | i
COc1ccc(Cn2nc(C)cc2C)cc1OC | x | 0.7 | 0.6 | 2.9 | 3% | 3.8 | x
COc1cccc(C(=O)Nc2nnc(-c3ccc(F)cc3)o2)c1 | 4.2 | 0.6 | 0.9 | 2.5 | x | -0.4 | i
CN(C(=O)COC(=O)c1ccc(Cl)c(N)c1)c1ccccc1 | -3.6 | 0.68 | -2.8 | -22 | 1% | 0.0 | i

One compound at a time, as listed above. Screens in order: MLL AF4-AF9 inh	Ecoli growth	HNF4A DNA FP	UCH37 inh	Vif TR-FRET	RanGTP-Imp inh	FGF22 binding
COc1cccc(C(=O)Nc2nnc(-c3ccc(F)cc3)o2)c1 is listed as 4.2	0.6	0.9	2.5	x	-0.4	i
CN(C(=O)COC(=O)c1ccc(Cl)c(N)c1)c1ccccc1 is listed as -3.6	0.68	-2.8	-22	1%	0.0	i
COC(=O)[C@]12CCCCC=C1N(Cc1ccccc1)C(=O)[C@H](CC(=O)N1CCOCC1)C2 is listed as -4.1	x	3.2	x	x	x	i
O=C(CNCC1CCCO1)NCc1ccco1 (stereo unspecified) is listed as 0.4	0.69	2.9	0.9	x	-1.9	x
COc1ccc(Cn2nc(C)cc2C)cc1OC is listed as x	0.7	0.6	2.9	3%	3.8	x

Compound activity (PubChem)

The list is partial. The share of hits here may be higher or lower than overall.
